Compound activity (PubChem)
2A Renilla = FMDV 2A StopGo reporter, Renilla signal. HEK cells with a luciferase reporter of 2A StopGo recoding. Potency, µM (series often up to 57.5 µM), without a hit: at the highest dose signal change, negative = less light. actives 0.32% (n = 120,000); active means well fitted falling curve with a large enough effect; inconclusive means small, poorly fitted or top-dose-only effect; inactive means no such curve, though single readings can be large or run the other way; also: nearly all actives have a fitted effect of over 55% in size; overnight with compound
StopGo FLuc = FMDV 2A StopGo reporter, firefly signal | HEK cells with a luciferase reporter of 2A StopGo recoding | Potency, µM (doses to about 57.5 µM), without a hit: at the top dose signal change, negative = less light | actives 0.23% (n = 120,000) | AID 1745856; active = well fitted falling curve with a large enough effect; inconclusive = small, poorly fitted or top-dose-only effect; inactive = no such curve, though single readings can be large or run the other way; also: nearly all actives have a fitted effect of over 60% in size; overnight with compound
* = called active by the depositor; & = joins results of further samples; [ ] = remark or other dose. % is scaled to controls: 0 for no effect and ±100 for the full control effect; potency is read from the fitted curve at half-maximal effect.

What do the screens show for `CCCCSCCCNC(=O)c1cn(C)c2ccc(S(=O)(=O)N3CCCC3)cc2c1=O`?
2A Renilla: -14%; StopGo FLuc: -7%

What do the screens show for `C=CCN(CC#Cc1ccccc1)CC1CC1`?
2A Renilla: 5%; StopGo FLuc: 3%

What do the screens show for `O=C(/C=C/Nc1ccc2ccccc2c1)C(F)(F)F`?
2A Renilla: 38%[activator]; StopGo FLuc: 168%[activator]

How did CN(C)c1ccc(NC(=O)CC2C=CCC2)cc1 (stereo not given) do in these assays?
2A Renilla: 5%; StopGo FLuc: 112%[activator]

What do the screens show for `Cc1ccc(N(CC(=O)NCCc2ccc(Cl)cc2)S(=O)(=O)N(C)C)cc1`?
2A Renilla: 63%[activator]; StopGo FLuc: -12%

What do the screens show for `C/C(=N/Nc1ccc([N+](=O)[O-])cc1)c1ccc(Cl)cc1`?
2A Renilla: 4%; StopGo FLuc: 27%

Results for COCCCNC(=O)C1CCN(c2cc(C)nc3c(-c4ccc(OC)c(OC)c4)c(C)nn23)CC1 ?
2A Renilla: 3%; StopGo FLuc: -5%

What do the screens show for `COc1ccc(Cn2c(SCC(=O)N3CCN(c4ccc(F)cc4)CC3)nc3ccccc32)cc1`?
2A Renilla: 4%; StopGo FLuc: -5%

What do the screens show for `CCOc1cc2nc(-c3ccc(OC)c(OC)c3)nc(N3CCC(C(N)=O)CC3)c2cc1OC`?
2A Renilla: 0%; StopGo FLuc: 50%[activator]

How did CCC1=Nc2cc(C(=O)NCc3ccc(C)cc3)ccc2Sc2ccc(C)cc21 do in these assays?
2A Renilla: 95%[activator]; StopGo FLuc: 13%

How did CCCN(Cc1cc(OC)c(OC)c(OC)c1)Cc1cc(=O)n2cc(C)sc2n1 do in these assays?
2A Renilla: -8%; StopGo FLuc: -2%

What do the screens show for `Cc1cc(C)n(CCC(=O)Nc2ccc(Cl)cc2)n1`?
2A Renilla: -5%; StopGo FLuc: -5%

Results for Cc1ccc(Cn2c(CN3CCC(C(=O)NCC(C)c4ccccc4)CC3)cc3ccccc32)cc1 (stereo not given) ?
2A Renilla: 0%; StopGo FLuc: -7%

What do the screens show for `CCOC(=O)c1noc2nc(C)nc(Nc3ccc(C(C)C)cc3)c12`?
2A Renilla: 2%; StopGo FLuc: 7%

What do the screens show for `COc1ccc(S(=O)(=O)c2c(Nc3cccc(C)c3C)sc(C(=O)c3ccccc3)c2N)cc1`?
2A Renilla: 153%[activator]; StopGo FLuc: -18%

Results for CC(=O)Nc1ccc(NS(=O)(=O)c2cc3c4c(c2)CC(=O)N4CCC3)cc1 ?
2A Renilla: 13%; StopGo FLuc: -11%

What do the screens show for `Cc1cc2cc(CNC(=S)Nc3ccc(Br)cc3)ccc2[nH]1`?
2A Renilla: 53%[activator]; StopGo FLuc: 19%

How did CCN1C(=O)S/C(=C/c2cn(CC(=O)OC)c3ccccc23)C1=O do in these assays?
2A Renilla: -12%; StopGo FLuc: 24%

Results for CC(OC(=O)c1ccc(C(=O)OC(C)C(N)=O)cc1)C(N)=O (stereo not given) ?
2A Renilla: 9%; StopGo FLuc: 0%

How did N#CCc1ccc(NC(=O)CNc2ccc(F)cc2Cl)cc1 do in these assays?
2A Renilla: 83%[activator]; StopGo FLuc: 20%

Results for CC(C)c1ccc(C(CC(=O)c2ccc(Cl)cc2)S(=O)(=O)c2ccccc2)cc1 (stereo not given) ?
2A Renilla: -3%; StopGo FLuc: -8%

Results for CC(=O)N1CCCc2cc(S(=O)(=O)N(C)CC(=O)Nc3ccc(F)cc3Cl)ccc21 ?
2A Renilla: -17%; StopGo FLuc: -25%

What do the screens show for `O=C(CSC1=Nc2ccccc2N=C(c2ccc(F)cc2)C1)Nc1cc(F)ccc1F`?
2A Renilla: -1%; StopGo FLuc: 14%

Results for O=S1(=O)N=C(SCc2ccccc2)N(Cc2ccccc2)c2ccccc21 ?
2A Renilla: 42%[activator]; StopGo FLuc: -3%

How did CC(C)(Oc1ccc(Cl)cc1)C(=O)Nc1ccc(-c2nc3ncccc3o2)cc1 do in these assays?
2A Renilla: 1%; StopGo FLuc: 14%

Results for O=C(NC1(C(F)(F)F)C(=O)Nc2c1c(=O)[nH]c(=O)n2Cc1ccccc1)C1CCCCC1 (stereo not given) ?
2A Renilla: -14%; StopGo FLuc: -9%

What do the screens show for `O=C(NCc1ccc(Cl)cc1)C(=O)NCC(c1cccs1)S(=O)(=O)c1ccc(Cl)cc1` (stereo not given)?
2A Renilla: -12%; StopGo FLuc: -12%

What do the screens show for `CCOCCCNC(=O)c1[nH]c2cc(OC)ccc2c1Sc1ccccc1`?
2A Renilla: 11%; StopGo FLuc: -3%

Results for CCCCNC(=O)CCCCCn1c(=O)[nH]c2ccccc2c1=O ?
2A Renilla: 4%; StopGo FLuc: 11%

How did CCCCN1C(=O)C(O)(CC(=O)c2ccc(C)cc2C)c2cc(Br)ccc21 (stereo not given) do in these assays?
2A Renilla: -2%; StopGo FLuc: -11%

Results for NC(=O)c1ccc(CN(C(=O)c2nn(-c3ccccc3)c(=O)c3ccccc23)C2CC2)cc1 ?
2A Renilla: -5%; StopGo FLuc: -15%

Results for CCC(=O)Oc1ccc(C(=O)Nc2ccc(-c3nc4cc(C)ccc4o3)cc2)cc1 ?
2A Renilla: -3%; StopGo FLuc: 84%[activator]

How did COc1cc(OC)c(C2CC(=O)Nc3ccc4ccccc4c32)cc1OC (stereo not given) do in these assays?
2A Renilla: 21%; StopGo FLuc: 0%

What do the screens show for `CCOc1ccc(-c2nc(CS(=O)Cc3ccccc3)cs2)cc1OC` (stereo not given)?
2A Renilla: -3%[1.06 µM]; StopGo FLuc: 4%

How did CCCOc1c(Cl)cc(C(=O)N(Cc2sccc2C)C2CCS(=O)(=O)C2)cc1Cl (stereo not given) do in these assays?
2A Renilla: -8%; StopGo FLuc: -7%

What do the screens show for `CCOc1ccc(N2CC(NC(=O)CC)CC2=O)cc1` (stereo not given)?
2A Renilla: 2%; StopGo FLuc: 21%

How did COC(=O)c1c(NC(=O)Cc2coc3ccc(C)cc23)sc2c1CCC2 do in these assays?
2A Renilla: -1%&-11%; StopGo FLuc: 3%&-15%

How did COc1cccc(-c2nnn(Cc3ncc(-c4ccccc4)o3)n2)c1 do in these assays?
2A Renilla: 10%; StopGo FLuc: 27%

How did O=S(=O)(NCCS(=O)(=O)N1CCN(c2cccc(Cl)c2)CC1)c1ccc(F)cc1 do in these assays?
2A Renilla: 35%; StopGo FLuc: -24%

What do the screens show for `Cc1ccc(S(=O)(=O)c2cn(CC(=O)Nc3ccc4c(c3)OCO4)c3ccccc3c2=O)cc1`?
2A Renilla: 38%[activator]; StopGo FLuc: 4%

What do the screens show for `COc1ccccc1CNC(=O)N(C)CCOc1ccccc1C`?
2A Renilla: 28%; StopGo FLuc: 76%[activator]

Results for Cc1cccc(NC(=O)CSCc2cc(=O)n3ccsc3n2)c1C ?
2A Renilla: -1%; StopGo FLuc: 3%

Results for Cc1oc(-c2nc(C#N)c(N3CCCCC3)o2)cc1S(=O)(=O)N(C)c1ccccc1 ?
2A Renilla: -13%; StopGo FLuc: -1%

How did CN1CCN(Cc2c(O)ccc3cc(-c4ccccc4)c(=O)oc23)CC1 do in these assays?
2A Renilla: 3%; StopGo FLuc: -11%

What do the screens show for `CCC(=O)Oc1c(Sc2ccc(C)cc2)c(C)nn1-c1ccccc1`?
2A Renilla: -1%; StopGo FLuc: 0%

Results for Cc1cccc(Cn2c(N3CCc4ccccc4C3)nc3c2c(=O)n(C)c(=O)n3C)c1 ?
2A Renilla: -3%; StopGo FLuc: -3%

What do the screens show for `CN(C)c1ccc(-c2nc(-c3cccs3)c(-c3cccs3)[nH]2)cc1`?
2A Renilla: -9%; StopGo FLuc: 73%[activator]

How did O=C(CSc1nc2ccccc2nc1Cc1ccccc1F)Nc1cccc(C(F)(F)F)c1 do in these assays?
2A Renilla: -11%; StopGo FLuc: -9%

How did CN(C)C(=O)C(Cl)c1ccccc1 (stereo not given) do in these assays?
2A Renilla: -18%; StopGo FLuc: -22%

What do the screens show for `O=C(Nc1ccc2nc(SCc3ccc(I)cc3)sc2c1)c1ccc(Cl)cc1`?
2A Renilla: -12%; StopGo FLuc: 31%[activator]

Results for O=C(NCc1cccc(Br)c1)c1ncoc1-c1cccs1 ?
2A Renilla: 0%; StopGo FLuc: 87%[activator]

How did COCC(C)NC(=O)CC1CCCC1 (stereo not given) do in these assays?
2A Renilla: 3%; StopGo FLuc: 7%

Results for CCCCc1ccc(-c2csc(/C(C#N)=C/c3ccc(-c4ccccc4)cc3)n2)cc1 ?
2A Renilla: 36%[activator]; StopGo FLuc: 37%[activator]

What do the screens show for `O=C(NCCNC(=O)C1CC1)c1cc2ccccc2oc1=O`?
2A Renilla: 1%; StopGo FLuc: 15%

How did C=Cc1ccc(Cn2nc(-c3ccc(C)c(S(=O)(=O)N(CC)CC)c3)ccc2=O)cc1 do in these assays?
2A Renilla: 10%; StopGo FLuc: -2%

Results for O=C(Nc1cccc2c1CCCC2)c1ccc(S(=O)(=O)NC2CC2)cc1 ?
2A Renilla: 27%; StopGo FLuc: -13%

How did Cc1cccc(S(=O)(=O)c2cn(Cc3ccc(F)cc3)c3cc(N4CCOCC4)c(F)cc3c2=O)c1 do in these assays?
2A Renilla: 22%; StopGo FLuc: -14%

How did Cc1ccc(-c2nc(-c3ccc(C(C)(C)C)cc3)c(C)s2)cc1 do in these assays?
2A Renilla: 4%[1.06 µM]; StopGo FLuc: inconclusive

How did COc1ccc(NC(=O)Nc2cccc(-c3noc(C)n3)c2)cc1 do in these assays?
2A Renilla: -4%; StopGo FLuc: 16%

Results for Fc1ccc(-n2ncc3c(NCCC4=CCCCC4)ncnc32)cc1 ?
2A Renilla: -2%; StopGo FLuc: 96%[activator]

Grouped by structure: the entries above with an NH in an aromatic ring
What do the screens show for `Cc1cc2cc(CNC(=S)Nc3ccc(Br)cc3)ccc2[nH]1`?
2A Renilla: 53%[activator]; StopGo FLuc: 19%

Results for O=C(NC1(C(F)(F)F)C(=O)Nc2c1c(=O)[nH]c(=O)n2Cc1ccccc1)C1CCCCC1 (stereo not given) ?
2A Renilla: -14%; StopGo FLuc: -9%

What do the screens show for `CCOCCCNC(=O)c1[nH]c2cc(OC)ccc2c1Sc1ccccc1`?
2A Renilla: 11%; StopGo FLuc: -3%

Results for CCCCNC(=O)CCCCCn1c(=O)[nH]c2ccccc2c1=O ?
2A Renilla: 4%; StopGo FLuc: 11%

What do the screens show for `CN(C)c1ccc(-c2nc(-c3cccs3)c(-c3cccs3)[nH]2)cc1`?
2A Renilla: -9%; StopGo FLuc: 73%[activator]

Sorted by formula weight (ascending): three of the compounds above.
How did CCN1C(=O)S/C(=C/c2cn(CC(=O)OC)c3ccccc23)C1=O do in these assays?
2A Renilla: -12%; StopGo FLuc: 24%

How did CN1CCN(Cc2c(O)ccc3cc(-c4ccccc4)c(=O)oc23)CC1 do in these assays?
2A Renilla: 3%; StopGo FLuc: -11%

What do the screens show for `CCOc1ccc(-c2nc(CS(=O)Cc3ccccc3)cs2)cc1OC` (stereo not given)?
2A Renilla: -3%[1.06 µM]; StopGo FLuc: 4%

(next part)
What do the screens show for `Cc1cc(=O)oc2cc(NC(=O)Cc3ccc(Cl)cc3Cl)ccc12`?
2A Renilla: -10%; StopGo FLuc: 11%

What do the screens show for `CC(=O)NC12CC3CC(C1)CC(C(=O)NCc1ccc(C(=O)N4CCCCC4)cc1)(C3)C2`?
2A Renilla: -1%; StopGo FLuc: 3%

Results for CC1CCN(S(=O)(=O)c2ccc3c(c2)N(CC(=O)NCCc2ccccc2)C(=O)CO3)CC1 ?
2A Renilla: 45%[activator]; StopGo FLuc: -10%

How did Cc1ccccc1Cn1cc(COC(=O)NCC(C)C)nn1 do in these assays?
2A Renilla: 24%; StopGo FLuc: -5%

What do the screens show for `COc1ccc(NC(=O)N2CCN(c3nc(C)cc(N4CCOCC4)n3)CC2)cc1`?
2A Renilla: 0%; StopGo FLuc: 50%[activator]

How did O=C(Nc1ccc(C(F)(F)C(F)(F)C(F)(F)F)oc1=O)c1ccccc1 do in these assays?
2A Renilla: 13%; StopGo FLuc: 0%

What do the screens show for `O=C(Nc1ccc(F)cc1)c1csc2c1CCCCC2`?
2A Renilla: inconclusive; StopGo FLuc: -109%

What do the screens show for `CCCCOc1ccccc1C1CC(=O)Nc2ccc3ccccc3c21` (stereo not given)?
2A Renilla: -1%; StopGo FLuc: -17%

How did O=C(O)c1ccc(Br)cc1C(=O)O do in these assays?
2A Renilla: 1%; StopGo FLuc: 15%

What do the screens show for `Cc1ccc(C)c(NC(=O)CN2C(=O)c3cccnc3Oc3ccc(C)cc32)c1`?
2A Renilla: 1%; StopGo FLuc: -5%

Results for Cc1cc(Br)ccc1NC(=O)C1CCN(S(=O)(=O)c2ccc(Br)s2)CC1 ?
2A Renilla: -7%; StopGo FLuc: 8%

How did O=Cc1c(-c2cc(Cl)ccc2Cl)[nH]c2ccccc12 do in these assays?
2A Renilla: -3%; StopGo FLuc: 0%

How did CCCCCCCC(=O)NCc1cccs1 do in these assays?
2A Renilla: -1%; StopGo FLuc: -4%

How did Cc1cccc(N2CCN(C(=O)c3cc4c(=O)n(C)c5ccccc5c4s3)CC2C)c1 (stereo not given) do in these assays?
2A Renilla: 2%; StopGo FLuc: -19%

How did CC(C)OCCCNC(=O)c1cc2c(-c3ccc(Cl)cc3)nn(C)c2s1 do in these assays?
2A Renilla: -8%; StopGo FLuc: -13%

What do the screens show for `CCn1ccc2cc(S(=O)(=O)N3CCCN(C(=O)NCC(=O)OC)CC3)ccc21`?
2A Renilla: 5%; StopGo FLuc: -6%

Results for O=C(CSc1nnnn1-c1cccc2ccccc12)Nc1ccc(C(=O)O)cc1 ?
2A Renilla: -3%; StopGo FLuc: 40%[activator]
